HTT prom inh – inhibitors of huntingtin promoter activity; HEK293 HTT promoter firefly luciferase reporter (activity 0% = vehicle and -100% = no light), 24 h; Potency, µM (doses to about 57.5 µM), for inactives: top-dose activity change, negative = inhibition, actives largely listed as inhibitors; 48,000 tested, 0.93% active; active means well fitted inhibition curve with a large enough effect; inconclusive means small, poorly fitted or top-dose-only effect; inactive means no such curve, though single readings can be large or run the other way; further: nearly all actives have a fitted effect of over 50% in size
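HEK293 luciferase promoter-reporter cells (2,500/well) plated 24 h, then compounds added at up to 57.5 uM final for 24 h at 37 °C. Firefly luminescence by Dual-Glo, normalized to vehicle (0%) and zero RLU (-100%).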
PMP22 txn – modulates PMP22 transcription in S16 Schwann cells; 43,000 tested, 2% active; AID 1508649; Potency, µM (series often up to 57.5 µM), for inactives: top-dose activity change, negative = inhibition, hits mostly inhibitors; S16 Pmp22-F2sN Schwann cells (luciferase reporters placed in the Pmp22 gene), FLuc/NLuc coincidence luminescence, 24 h; active = clear falling dose curves in both reporters; inconclusive = both reporters move, but less clearly or upward; inactive = either reporter flat; the % is the NLuc reporter signal; further: on the % scale 0 is the no-effect control and ±100 the full control effect; some results filed as inactive show a strong effect at the top dose
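Schwann cells carrying the coincidence reporter were exposed to library compounds for 24 h at 37C, then lysed and read for FLuc and, after quenching, NLuc luminescence on a CCD imager.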
Starred values were filed as active, the others as inactive; ? = inconclusive; · = not tested or not shown; & = joins results of further samples; [ ] = dose if it differs, or a comment. Potency means the concentration at half of the fitted maximal effect.

SMILES	HTT prom inh	PMP22 txn
Cc1ccc2c(c1)-c1onc(C(=O)N3CCN(c4ccc(Cl)cc4)CC3)c1CO2	-5.6%	-33.3%
COc1ccc(-c2nnn3c2nc(N2CCCC(C)C2)c2ccccc23)cc1 (stereo not drawn)	-17.7%	?
COc1cccc(NC(=O)Cn2c(=O)n(CCC(=O)NCCc3ccc(Cl)cc3)c(=O)c3ccccc32)c1	-13.1%	-29.5%
Cc1ccc(NC(=O)N2CCC(c3ccccc3)C2)cc1C (stereo not drawn)	55.2%[activator]	9.0%
Cc1ccc(-n2ncc(C(=O)NCCc3c[nH]c4ccccc34)c2C2CCN(C(=O)OC(C)(C)C)CC2)cc1C	?	?
CCC1CCCCN1CCCNC(=O)c1ccc2c(c1)N(Cc1ccc(Cl)cc1)C(=O)c1ccccc1S2(=O)=O (stereo not drawn)	-19.8%	?
CC(C)NC(=O)C1CCN(C(=O)N2CC(C)Oc3ccccc32)CC1 (stereo not drawn)	-0.7%	5.3%
Cc1ccc(Cl)cc1N1CCN(c2ncnc3c2nc2n3CCCCC2)CC1	?	?
CCOc1ccc(Nc2oc(-c3ccc(COc4ccccc4C)o3)nc2C#N)cc1	?	-24.7%
Cc1ccccc1CCNC(=O)c1ccc(NC(=O)N2CC(C)Sc3ccccc32)cc1 (stereo not drawn)	?	?
Cc1ccc(CNC(=O)CCC(=O)N2Cc3ccccc3Oc3ncccc32)cc1	-7.9%	-9.0%
CCOC(=O)c1cc(OC(=O)c2ccc(OC)cc2)n(-c2ccccc2)n1	1.7%	-28.0%
Cc1ccc(CCNC(=O)c2cc3cc(S(=O)(=O)N4CCCCC4)ccc3n2C)cc1	-20.6%	-1.8%
Cc1cccc(C(=O)Nc2cccc(OCc3cc(=O)n4cccc(C)c4n3)c2)c1	4.7%	4.9%
O=C(C1CCN(c2ncnc3c2nc2n3CCCCC2)CC1)N1CCN(c2ccc(F)cc2)CC1	-25.1%	?
Cc1c(CCNC(=O)c2c(F)cccc2F)sc2nc(-c3ccc(F)cc3)nn12	23.9%	-7.8%
COc1ccc(-n2nc(C(=O)NCc3ccc(F)cc3)c3c4ccccc4n(C)c3c2=O)cc1	-9.8%	-27.1%
Cc1ccc2nc(SCc3nc(-c4ccc(Cl)cc4)no3)[nH]c2c1	-15.6%	-57.9%
O=C(CCc1nnc2n(Cc3ccccc3Cl)c(=O)c3ccccc3n12)Nc1ccccc1	-3.7%	12.6µM*
COc1ccc(-c2oc3ncn4nc(COc5ccccc5C)nc4c3c2-c2ccc(OC)cc2)cc1	-1.4%[11.5 µM]	0.7%
Cc1ccccc1NC(=O)CSc1nc2ccccc2c2nc(CCn3c(C)nc4ccccc43)nn12	0.0%	?
COc1ccc(-n2c(=O)c3c(C)c(C)sc3n(CC(=O)NCc3ccc(C)cc3)c2=O)c(OC)c1	?	58.2%
Cc1ccc(/C=C/c2onc(C)c2S(=O)(=O)N2CCC(C(=O)N3CCOc4ccccc43)CC2)cc1	-26.2%	-15.5%
O=C(COCc1cc(-c2ccc(F)cc2)on1)Nc1cccc(C(F)(F)F)c1	-1.6%	-2.9%
COc1ccccc1N1CCN(C(=O)CCNS(=O)(=O)c2ccc3c(c2)CCN3C(=O)C2CC2)CC1	-19.2%	?
CCc1ccc(C(=O)c2cn(CC(=O)Nc3ccc(Cl)cc3)c3cc4c(cc3c2=O)OCO4)cc1	?	-17.9%
COc1ccc(Cl)cc1NC(=O)Cn1cc(C(=O)c2ccncc2)c(=O)c2cc(C)ccc21	-19.9%	-2.5%
CCn1cc(C(=O)NCCc2ccccc2)c(=O)c2cc(S(=O)(=O)N3CCc4ccccc4C3)ccc21	-11.3%	?
Cc1[nH]c2ccccc2c1C1N2CC3(C)CN1CC(C)(C2)C3=O (stereo not drawn)	-0.6%	-15.5%
CCSc1ncc(Cl)c(C(=O)Nc2cc(C)ccc2C)n1	-7.9%	4.7%

2 of the compounds above, with each value named.
SMILES: O=C(COCc1cc(-c2ccc(F)cc2)on1)Nc1cccc(C(F)(F)F)c1
  HTT prom inh: -1.6%	PMP22 txn: -2.9%
SMILES: COc1ccccc1N1CCN(C(=O)CCNS(=O)(=O)c2ccc3c(c2)CCN3C(=O)C2CC2)CC1
  HTT prom inh: -19.2%	PMP22 txn: ?

Next section.
SMILES	HTT prom inh	PMP22 txn
CCOCCCNC(=O)CN1C(=O)c2c(c3ccccc3n2C)C1c1ccc(OC)cc1 (stereo not drawn)	-8.2%	-27.0%
CC1CCN(S(=O)(=O)c2ccc3nc(N4CCN(c5ccccc5)CC4)ccc3c2)CC1	7.0%	-0.3%
Cc1ccc(CNC(=O)c2cc(-c3ccc(Cl)cc3)on2)cc1	16.5%	-6.2%
Cc1nn(-c2ccccc2)c(OC(=O)C(C)C)c1Sc1ccc(Cl)cc1	-22.7%	-7.9%
COc1ccc(C2CC(=O)Nc3c2c(=O)n(C)c2nc4ccccc4n32)cc1 (stereo not drawn)	-13.5%	-1.7%
CN1Cc2c(N)cccc2C(c2ccccc2)C1 (stereo not drawn)	6.2%	·
O=C(c1cnn(-c2cccc(F)c2)c1-n1cccc1)N1CCN(c2ccccc2F)CC1	?	-5.6%
CCn1c(C(=O)NCc2ccccc2Br)cc2oc3ccccc3c21	?	-5.1%
CCOC(=O)C1CCCN(C(=O)c2ccc3c(c2)sc2nc(-c4ccc(C)cc4C)cn23)C1 (stereo not drawn)	-4.9%	-44.7%
COC(=O)c1ccc([C@@H]2Nc3c(OC)ccc(C)c3[C@@H]3C=CC[C@@H]32)cc1	-25.5%	?
O=C(CN1CCN(CC(=O)Nc2ccccc2F)CC1)Nc1ccc(Cl)c(C(F)(F)F)c1	?	?
CC(C)c1cc(C(=O)N2Cc3ccc(CN4CCN(C)CC4)cc3C2)c(O)cc1O	?	·
Cc1nn(-c2ccccc2)c(OC(=O)c2ccccc2Br)c1S(=O)(=O)c1ccccc1	-8.8%	-10.8%
CS(=O)(=O)NCC(c1ccco1)N1CCN(c2ccccc2)CC1 (stereo not drawn)	-5.7%	0.3%
COc1ccc2nc(NC(=O)c3cc(=O)c4ccccc4o3)sc2c1	66.7%[activator]	?
Cc1ccc(-c2nnc3ccccc3c2C(=O)Nc2cccc(Cl)c2)cc1	10.4%	0.0%
COc1cccc(N2CCN(c3ccc4nnc(CCC(=O)O)n4n3)CC2)c1	7.4%	18.3%
CCN(CC)CCN(C(=O)c1ccc(C(=O)OC)cc1)c1nc2ccc(Cl)cc2s1	-23.4%	?
Cc1cc(OC(C)C(=O)N(Cc2ccco2)Cc2ccco2)cc(C)c1Cl (stereo not drawn)	?	?
COc1ccc(CCC(=O)NCc2ccc3c(c2)CCN3C(=O)c2ccc(F)cc2)cc1	-6.9%	-3.7%
O=C1C(c2ccc(C(F)(F)F)cc2)=C(Nc2ccc(Cl)cc2)c2ccccc21	?	?
O=C(CCc1ccccc1)N1CCc2c([nH]c3ccccc23)C1c1ccc(Cl)cc1 (stereo not drawn)	?	-1.0%
Cc1ccc(C)c(Cn2c(=O)c3c(nc4n3CCN4c3ccc(F)cc3)n(C)c2=O)c1	-7.3%	16.2%
CC(=O)N1c2ccc(S(=O)(=O)N3CCCCCC3)cc2CC1C(=O)NCc1cccc(C)c1 (stereo not drawn)	-6.6%	-64.4%
Cc1ccc(C)c(OCC(=O)Nc2ccc(S(=O)(=O)Nc3onc(C)c3C)cc2)c1C	-6.1%	-3.0%
CCOC(=O)c1c(-c2ccccc2)oc2cc(Br)c(OCc3ccccc3)cc12	-7.7%	-22.4%
Cc1oc2ncn(C)c(=O)c2c1C(=O)NCCCN1CCCC(C)C1 (stereo not drawn)	0.0%	-3.2%
COc1cc(OC)c(NC(=O)C2CCCN(c3ncnc4c3nc3n4CCCCC3)C2)cc1Cl (stereo not drawn)	-17.9%[11.5 µM]	?
CC(C)CCNC(=O)CCCn1c(=O)c2cccn2c2ccccc21	7.3%	6.4%
COc1cc2c(cc1OC)C(C(C(=O)N(CCc1ccc(OC)c(OC)c1OC)CCc1ccc(OC)c(OC)c1OC)c1ccccc1)=NCC2 (stereo not drawn)	-15.2%	·
O=C(Nc1ccccc1)C(Cc1ccccc1)N1Cc2ccccc2C1=O (stereo not drawn)	-21.5%	49.9%
CCCCn1c2ccccc2c2nnc(SCC(=O)Nc3ccc(NC(C)=O)cc3)nc21	-31.5%	-6.0%
CCc1ccccc1NC(=O)CSc1nnc2ccc3ccccc3n12	-11.0%	-22.7%
CCc1cnc2c(c1SCC(=O)N1CCCCC1)c(=O)n(C)c(=O)n2C	-10.3%	-27.2%
Cc1cccc(C)c1NC(=O)CN1C(=O)CCSc2ccc(S(=O)(=O)N3CCCC3)cc21	-21.8%	73.7%
CC(C)Oc1ccc(C(=O)NCCc2csc(-c3cccc(F)c3)n2)cc1	-31.9%	5.6%
CCOC(=O)c1c(NC(=O)Nc2ccc(F)cc2)sc(C(=O)N(C)C)c1C	-19.3%	1.7%
CSc1ccc(CCNC(=O)c2cc(C)nc3c2c(C)nn3-c2ccccc2)cc1	-8.4%	-26.0%
Cc1nc2ccc(S(=O)(=O)CCC(=O)Nc3ccc(C)c(C)c3)cc2s1	-17.1%	-23.8%
COc1cc2c(=O)c(S(=O)(=O)c3ccc(C)cc3)cn(Cc3cccc(C)c3)c2cc1OC	-19.2%	?
NS(=O)(=O)c1ccc(CCNC(=O)C2CCN(c3ncnc4c3nc3n4CCCCC3)CC2)cc1	-1.0%	12.2%
CSc1nc2sc3c(c2c(=O)n1-c1ccc(F)c(Cl)c1)CCN(C(C)=O)C3	-6.6%	-20.1%
Cc1ccc2oc(=O)c3cnn(CC(=O)NCc4ccccc4Cl)c3c2c1	7.8%	-10.8%
COc1ccccc1NC(=O)CN(C)S(=O)(=O)c1cccc2cccnc12	-10.2%	-7.0%
COc1ccc2c(c1)c1c(c(=O)n(Cc3ccccc3)c(=O)n1Cc1ccc(C)cc1)n2C	-15.4%	-15.2%
CN1CCN(CCCNC(=O)c2cnn(-c3ccccc3)c2C2CCN(C(=O)OC(C)(C)C)CC2)CC1	0.7%	-23.3%
Cc1ccccc1Cn1c(CN2CCC(C(=O)NCCc3ccccc3)CC2)cc2ccccc21	-8.1%	-38.6%
CCc1cccc(CC)c1NC(=O)C(CC)n1nc(C)n2c(cc3cc(C)ccc32)c1=O (stereo not drawn)	1.8%	-36.3%
CCc1ccc2ncc3c(-c4ccc(C)cc4)nn(CC(=O)NCc4ccccc4)c3c2c1	0.0%	-25.9%
Oc1c(C(c2ccccc2Cl)N2CCCC2)sc2nc(-c3ccco3)nn12 (stereo not drawn)	-27.8%	6.0%
Cc1cccc(-c2nc(CSCC(=O)N3CCN(c4ccccc4)CC3)c(C)o2)c1	?	5.3%
O=C(COc1ccccc1F)NC1CC(=O)N(c2ccc3c(c2)OCCO3)C1 (stereo not drawn)	2.3%	-31.0%
Cc1ccc(Cl)c2sc(N3CCN(C(=O)C4CC4)CC3)nc12	0.0%	10.9%
O=C(CN1C(=O)CCSc2ccccc21)Nc1ccc(C(F)(F)F)cc1	?	-10.4%
Clc1ccc(C(Cn2ccnc2)OCc2ccc(Sc3ccccc3)cc2)c(Cl)c1 (stereo not drawn)	-17.5%&5.5%	·
Cc1cc(=O)[nH]c2nnc(SCc3ccc(Cl)c(Cl)c3)n12	-13.1%	12.3%
CC(C)c1ccc(NC(=O)C2CCCN(S(=O)(=O)c3cccc4cccnc34)C2)cc1 (stereo not drawn)	-20.6%	-46.3%
COc1ccccc1N1CCN(c2nc3ccccc3n3cnnc23)CC1	5.7%	?
COc1ccc(-c2nc3ccccc3s2)cc1NC(C)=O	63.0%[activator]	?
CCCOc1ccc(CNC(=O)CCCn2nc(C)c3sc4ccccc4c3c2=O)cc1	-10.3%	-27.4%

More entries follow:
SMILES	HTT prom inh	PMP22 txn
COC(=O)c1cnn(-c2ccc(C(=O)Nc3ccc(OC(F)(F)F)cc3)cc2)c1N	?	-3.5%
COc1ccc(NC(=O)COCc2cc(-c3ccco3)on2)cc1	-11.8%	-4.1%
Cc1cccc(N2CCN(S(=O)(=O)c3cc(Cl)ccc3Cl)CC2)c1C	-0.4%	-5.3%
CCOc1ccc(CNC(=O)c2ccccc2NC(=O)c2nsc3ccccc23)cc1	20.4%	?

Filtered by structure: the entries above with an aryl thioether with sulfur outside any ring.
SMILES	HTT prom inh	PMP22 txn
Cc1ccc2nc(SCc3nc(-c4ccc(Cl)cc4)no3)[nH]c2c1	-15.6%	-57.9%
Cc1ccccc1NC(=O)CSc1nc2ccccc2c2nc(CCn3c(C)nc4ccccc43)nn12	0.0%	?
CCSc1ncc(Cl)c(C(=O)Nc2cc(C)ccc2C)n1	-7.9%	4.7%
Cc1nn(-c2ccccc2)c(OC(=O)C(C)C)c1Sc1ccc(Cl)cc1	-22.7%	-7.9%
CCCCn1c2ccccc2c2nnc(SCC(=O)Nc3ccc(NC(C)=O)cc3)nc21	-31.5%	-6.0%
CCc1ccccc1NC(=O)CSc1nnc2ccc3ccccc3n12	-11.0%	-22.7%
CCc1cnc2c(c1SCC(=O)N1CCCCC1)c(=O)n(C)c(=O)n2C	-10.3%	-27.2%
CSc1ccc(CCNC(=O)c2cc(C)nc3c2c(C)nn3-c2ccccc2)cc1	-8.4%	-26.0%
CSc1nc2sc3c(c2c(=O)n1-c1ccc(F)c(Cl)c1)CCN(C(C)=O)C3	-6.6%	-20.1%
Clc1ccc(C(Cn2ccnc2)OCc2ccc(Sc3ccccc3)cc2)c(Cl)c1 (stereo not drawn)	-17.5%&5.5%	·
Cc1cc(=O)[nH]c2nnc(SCc3ccc(Cl)c(Cl)c3)n12	-13.1%	12.3%

From PubChem

The order is random (roughly 2.4% active in at least one column).
